# Sfp inh: Sfp phosphopantetheinyl transferase inhibition. Q9F4F7. Biochemical Sfp PPTase activity, qHTS. Potency, µM, without a hit: max response, negative = inhibition, actives largely listed as inhibitors. actives 3.5% (n = 310,000); active = well fitted inhibition curve with a large enough effect; inconclusive = small, poorly fitted or top-dose-only effect, or another doubt; inactive = no such curve, though single readings can be large or run the other way;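 also: the enzyme is Sfp with the accession as filed and its product quenches rhodamine fluorescence; potency is read from the fitted curve at half-maximal effect; 0% = enzyme reaction without inhibitor and -100% = no enzyme wells; top concentration of the series not given in the record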
#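 Sfp 15 nM + cpd, 15 min RT; start w/ rhodamine-CoA 5 uM, BHQ-2-YbbR 12.5 uM (final); 50 mM Hepes pH 7.6, 10 mM MgCl2, 0.01% NP-40, 0.01% BSA; read 525/598 nm at 0 and 30 min.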
# ClpP mod: qHTS Assay for Activators of ClpP. ATP-dependent Clp protease proteolytic subunit (Bacillus subtilis (strain 168)), P80244. purified B. subtilis ClpP, FRET peptide cleavage, 20 min. Potency, µM (doses to about 57.5 µM), inactives show at the highest dose activity change, negative = active. actives 1.9% (n = 340,000). AID 651965, 2013; active = well fitted falling curve with a large enough effect; inconclusive = small, poorly fitted or top-dose-only effect; inactive = no such curve, though single readings can be large or run the other way; also: potency is read from the fitted curve at half-maximal effect; the source files actives as falling curves though it sought activators and does not explain the sign; nearly all actives have a fitted effect of over 65% in size; many hits overshoot -100%
# Target sequence (P80244 whole entry, looked up): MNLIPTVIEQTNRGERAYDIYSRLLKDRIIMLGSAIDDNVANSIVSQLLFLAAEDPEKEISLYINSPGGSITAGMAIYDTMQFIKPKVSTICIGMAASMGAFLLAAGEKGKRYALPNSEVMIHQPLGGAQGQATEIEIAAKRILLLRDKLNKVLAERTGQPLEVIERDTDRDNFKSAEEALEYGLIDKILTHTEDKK
#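 Buffer: 100 mM Tris/HCl pH8, 100 mM KCl, 0.05% low protease BSA, 2.5% glycerol, 0.01% Tween-20. ClpP 10 microg/mL final; 20 min RT; delta FRET normalized to ADEP and DMSO controls.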
# Menin-MLL FL inh: menin-MLL binding inhibition, fluorescein peptide; Fluorescence polarization, fluorescein-MLL peptide displacement from menin; FP activity change, % at 61.4 µM; 290,000 tested, under 10 active; inconclusive = falling polarisation curve, or a change in total fluorescence; inactive = total fluorescence flat and polarisation flat or rising; no compound was filed as active; the % refers to the polarisation; negative = inhibition;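 also: % of control where 0% means no effect; inhibitors lower the polarisation; unlabelled MLL peptide was the positive control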
# CtBP-E1A blk: inhibitors of CtBP/E1A interaction; AlphaScreen GST-E1A/His-CtBP binding, 1536-well; stronger effect = lower value; control for the full effect not named in the record; activity change, % (test concentration not listed); actives 0.49% (n = 340,000); AID 651724; in the data active means activity change below about -65%; inconclusive means about -30% to -65%; inactive means above about -30%; also: % is scaled to controls: 0 for no effect and ±100 for the full control effect; compound concentration not given in the record
#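 Steps: dispense buffer (Tris pH 8.0, NaCl 300 mM, TCEP 1 mM, BSA, Tween 20); add 5X protein mix (GST-E1A, His-CtBP, 125 nM each); pin 23 nL compound; 2 h at 37 °C, dark; add 5X beads (50 ug/mL); 1 h; read.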
# gsp agonist: activates gsp, the McCune-Albright syndrome mutation; gsp mutant cells, cAMP HTRF, 30 min; control for the full effect not named in the record; Potency, µM (top dose mostly 76.9 µM), inactives show at the top dose activation (cAMP increase), usual class: activators; actives 0.13% (n = 340,000); AID 624287; active = well fitted activation curve with a large enough effect; inconclusive = small, poorly fitted or top-dose-only effect, or another doubt; inactive = no such curve, though single readings can be large or run the other way; cell line not stated here;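 also: phosphodiesterase inhibitor Ro 20-1724 added with compounds to block cAMP breakdown; potency is read from the fitted curve at half-maximal effect; nearly all actives have a fitted effect of over 60% in size; about a fifth of the inactives were tested at one dose only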
#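 Cells stably selected in G418 were plated at 2000/well, grown 16-24 hr, then given compounds in DMSO with the PDE inhibitor […] (300 uM solution added) for 30 min at 37C; cAMP was read by HTRF.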
# gsp antagonist: antagonists of gsp mutant (McCune-Albright syndrome). AID 624288. gsp-mutant cells, cAMP HTRF, 30 min; control for the full effect not named in the record. actives 0.4% (n = 340,000). Potency, µM (highest dose often 76.9 µM), inactives show at the highest dose activity change, negative = inhibition, hits mostly inhibitors; active = falling curve of any shape with a large fitted effect; inconclusive = falling curve, mostly with a smaller effect; inactive = flat or rising curve; cell line not stated here;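 also: intracellular cAMP measured with PDE inhibitor Ro 20-1724 present during compound exposure; potency is read from the fitted curve at half-maximal effect; % is scaled to controls: 0 for no effect and ±100 for the full control effect; nearly all actives have a fitted effect of over 65% in size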
#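 G418-selected cells were plated in DMEM/10% FBS for 16-24 h at 37C, then treated with compounds plus the PDE inhibitor […] (300 uM solution added) for 30 min at 37C. Intracellular cAMP was measured by HTRF after 30 min lysis at room temperature.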
# TRPV1 potentiator: human TRPV1 potentiation | potentiation, % at 8.33 µM | AID 540277 | TRPV1-expressing cells, Fluo-8 calcium influx, capsaicin EC20 potentiation; host cell line not named in the record; control for the full effect not named in the record | actives 0.02% (n = 320,000) | Q8NER1; active means potentiation above 80%; inconclusive means 30% to 80%; inactive means below 30%; also: 0% is about no effect
# Target sequence (Q8NER1 whole entry, looked up): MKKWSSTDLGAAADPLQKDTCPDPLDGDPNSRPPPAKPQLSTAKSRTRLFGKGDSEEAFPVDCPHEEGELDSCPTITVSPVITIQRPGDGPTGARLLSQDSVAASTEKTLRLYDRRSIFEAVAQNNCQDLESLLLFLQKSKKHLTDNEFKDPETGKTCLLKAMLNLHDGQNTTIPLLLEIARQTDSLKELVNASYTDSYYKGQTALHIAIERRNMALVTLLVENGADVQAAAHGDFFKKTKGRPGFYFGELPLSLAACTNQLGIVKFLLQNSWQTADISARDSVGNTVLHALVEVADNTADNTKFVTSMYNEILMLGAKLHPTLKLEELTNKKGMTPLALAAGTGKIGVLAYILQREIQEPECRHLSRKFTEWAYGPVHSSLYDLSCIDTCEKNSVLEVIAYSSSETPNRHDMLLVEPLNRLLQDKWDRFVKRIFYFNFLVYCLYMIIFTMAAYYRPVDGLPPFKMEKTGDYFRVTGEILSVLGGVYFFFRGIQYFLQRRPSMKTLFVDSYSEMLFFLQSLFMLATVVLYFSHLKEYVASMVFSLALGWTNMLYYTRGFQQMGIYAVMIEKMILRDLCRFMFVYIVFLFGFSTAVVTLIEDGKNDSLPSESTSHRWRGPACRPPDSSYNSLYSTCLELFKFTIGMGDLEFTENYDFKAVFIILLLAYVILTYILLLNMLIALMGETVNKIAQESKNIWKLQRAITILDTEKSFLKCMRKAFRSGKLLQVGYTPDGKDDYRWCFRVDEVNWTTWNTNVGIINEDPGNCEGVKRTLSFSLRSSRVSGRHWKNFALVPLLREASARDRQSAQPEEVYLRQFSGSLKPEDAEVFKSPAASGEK
#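 TRPV1-expressing cells were cultured overnight at 35.5C and loaded with Fluo-8 calcium dye for 40 to 90 min at room temperature. After a 10 s baseline, compound was added and calcium influx was read kinetically for 3 min (ex 480/em 520 nm).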
# An asterisk follows results filed as active; ? = inconclusive; · = no result given; [ ] = another dose, or the depositor's remark.
# Start of the data: the first 10 records, to show the layout:
item | Structure | Menin-MLL FL inh | Sfp inh | TRPV1 potentiator | CtBP-E1A blk | ClpP mod | gsp agonist | gsp antagonist
1 | CC(C)(C)c1ccc(-c2cc(-c3ccccc3O)[nH]n2)cc1 | 0.7 | 23% | ? | -4 | -0.5% | 16%[15.4 µM] | -1%
2 | O=C(COC(=O)Cc1ccsc1)Nc1ccccc1 | 2.3 | 25% | 12 | 12 | · | -19% | 8%
3 | CCOc1ccc(C2C(C#N)=C(N)SC(N)=C2C#N)cc1OCC | ? | ? | 1 | -2 | -0.8% | ? | 17%
4 | C/C(=C\C#N)n1nc(C)cc1N | 2.3 | 11% | 1 | -4 | -2.8% | -50%[inhibitor] | 1%
5 | COc1ccccc1CCNC(=O)Nc1cccc([N+](=O)[O-])c1 | -0.6 | 6% | -3 | 4 | · | 22% | -17%
6 | CCCCn1cnc2c(SCc3cccc(F)c3)nc(N)nc21 | · | · | · | -3 | · | 13% | 8%
7 | Cc1ccccc1N1CCN(C2CCCN(C(=O)c3cc[n+]([O-])cc3)C2)CC1 (stereo not given) | · | 6% | -1 | 0 | 1.2% | -19% | 13%
8 | CCc1ccc(OCc2nnc(SCC(=O)NCc3ccco3)o2)cc1 | 2.3 | 19% | -14 | -2 | -3.5% | 0% | 7%
9 | Cc1ccc(-c2c(CC(=O)O)c(C)nc3sc4c(c23)CCCC4)cc1 | -4.5 | 6% | 18 | 5 | -13% | 3% | -26%
10 | Cc1[nH]c2c([N+](=O)[O-])cccc2c1C | 0.1 | 5% | -1 | 5 | -0.2% | 21%[15.4 µM] | -14%

# All compounds of this part (from the top)
item | Structure | Menin-MLL FL inh | Sfp inh | TRPV1 potentiator | CtBP-E1A blk | ClpP mod | gsp agonist | gsp antagonist
1 | CC(C)(C)c1ccc(-c2cc(-c3ccccc3O)[nH]n2)cc1 | 0.7 | 23% | ? | -4 | -0.5% | 16%[15.4 µM] | -1%
2 | O=C(COC(=O)Cc1ccsc1)Nc1ccccc1 | 2.3 | 25% | 12 | 12 | · | -19% | 8%
3 | CCOc1ccc(C2C(C#N)=C(N)SC(N)=C2C#N)cc1OCC | ? | ? | 1 | -2 | -0.8% | ? | 17%
4 | C/C(=C\C#N)n1nc(C)cc1N | 2.3 | 11% | 1 | -4 | -2.8% | -50%[inhibitor] | 1%
5 | COc1ccccc1CCNC(=O)Nc1cccc([N+](=O)[O-])c1 | -0.6 | 6% | -3 | 4 | · | 22% | -17%
6 | CCCCn1cnc2c(SCc3cccc(F)c3)nc(N)nc21 | · | · | · | -3 | · | 13% | 8%
7 | Cc1ccccc1N1CCN(C2CCCN(C(=O)c3cc[n+]([O-])cc3)C2)CC1 (stereo not given) | · | 6% | -1 | 0 | 1.2% | -19% | 13%
8 | CCc1ccc(OCc2nnc(SCC(=O)NCc3ccco3)o2)cc1 | 2.3 | 19% | -14 | -2 | -3.5% | 0% | 7%
9 | Cc1ccc(-c2c(CC(=O)O)c(C)nc3sc4c(c23)CCCC4)cc1 | -4.5 | 6% | 18 | 5 | -13% | 3% | -26%
10 | Cc1[nH]c2c([N+](=O)[O-])cccc2c1C | 0.1 | 5% | -1 | 5 | -0.2% | 21%[15.4 µM] | -14%
11 | CCN1CCN(C(=O)c2nn(-c3ccc(OC)cc3)c(=O)c3c2c2ccccc2n3C)CC1 | -0.5 | 11% | 10 | · | -5.5% | ? | 5%
12 | COc1ccc(CN2C(=O)C(CC(=O)NCc3cccs3)CC(C(=O)N(C(C)C)C(C)C)=C2C)cc1 (stereo not given) | · | · | · | 7 | -0.8% | -125%[inhibitor] | ·
13 | CC(C)NC(=O)C(Sc1ccccc1)c1ccccc1 (stereo not given) | 0.7 | 3% | -9 | -5 | -2.0% | 3% | 0%
14 | COCCNC(=O)CN1CCC(NC(=O)Nc2ccc(C(F)(F)F)cc2)CC1 | 0.4 | 15% | 26 | 8 | -0.5% | 1% | 8%
15 | Cc1ccc(S(=O)(=O)NC(C(=O)Oc2ccc3c(C)c(Cl)c(=O)oc3c2)c2ccccc2)cc1 (stereo not given) | -2.1 | -9% | 8 | 4 | 54% | 14% | 11%
16 | Cc1noc(C)c1S(=O)(=O)Nc1ccc(C(=O)N2CCCCC2)cc1 | 3.9 | 5% | 2 | 2 | -0.8% | -2% | -2%
17 | COc1ccc(C(=O)NCc2ccon2)cc1OC1CCN(C(C)C)CC1 | -1.2 | 2% | ? | -1 | -3.8% | 15% | 7%
18 | N#C/C(=C\c1c[nH]c2ccccc12)C(=O)NC1CC1 | 0.6 | 0% | -3 | -18 | · | 7% | -5%
19 | Cc1nn(-c2ccccc2)c(C)c1NC(=O)c1ccc(S(=O)(=O)N2CCCC2)cc1 | 0.1 | 23% | 9 | 1 | 0.8% | -2% | -17%
20 | Cc1cc(C=C2C(=O)c3ccccc3C2=O)c(C)n1-c1ccc(C(=O)O)cc1 | ? | ? | -7 | -25 | · | -6%[15.4 µM] | ?
21 | COc1cc(/C=N\NC(=O)Cn2nnc3ccccc32)cc(OC)c1OC | 2.1 | 16% | 2 | -19 | -16% | ? | 3%
22 | O=C1CC(NCc2ccccc2)C(=O)N1c1ccc(F)cc1 (stereo not given) | 2.2 | -22% | -4 | 3 | · | 0%[15.4 µM] | -1%
23 | OC1(c2ccc(F)cc2)CCN(Cc2cccnc2)CC1 | 4.8 | 24% | -7 | 10 | -22% | -3%[15.4 µM] | 4%
24 | CC(=O)c1c(C)[nH]c(C(=O)OCC(=O)NCC(C)C)c1C | -2.8 | 8% | -4 | 5 | · | 7%[15.4 µM] | -11%
25 | O=C(C1CCN(S(=O)(=O)c2cccnc2)CC1)N1CCN(c2ccc(Cl)cc2)CC1 | 0.6 | 1% | -9 | · | 1.4% | -30% | -6%
26 | CC(=O)n1cc([C@H]2C=C(C(=O)Nc3ccccc3)O[C@@H](OCCCCO)C2)c2ccccc21 | 15 | -15% | -2 | -5 | -0.9% | 2% | -24%
27 | COc1ccccc1NC(=O)c1cc(OC)c(OC)cc1[N+](=O)[O-] | 1.3 | -2% | -2 | 24 | · | 16%[15.4 µM] | ·
28 | CC(=O)C1(O)CCC2C3CCC4CC(=O)CCC4(C)C3C(=O)CC21C (stereo not given) | · | · | · | 2 | 1.2% | -1% | -10%
29 | O=C(CN1C(=O)NC2(CCOc3ccccc32)C1=O)Nc1ccc2c(c1)OCCO2 (stereo not given) | 3.3 | 33%[activator] | 11 | 4 | -1.4% | -26% | -6%
30 | COCCN(C)Cc1nc(C(c2ccccc2)c2ccccc2)no1 | 0.9 | 12% | -10 | 5 | 0.0% | -52% | 7%
31 | CCOc1ccc(S(=O)(=O)N2CCCCC2)c2ccccc12 | 0.4 | -24% | -15 | 6 | -5.3% | 20% | ?
32 | CC(CCN1CCN=C1Nc1ccccc1)c1ccccc1 (stereo not given) | -2.3 | 11% | -1 | 3 | -0.7% | 16% | 11%
33 | CC1CN(S(=O)(=O)c2cccc(C(F)(F)F)c2)CN1C(=O)N1CCOCC1 (stereo not given) | 6.4 | 11% | 2 | 0 | · | -7%[15.4 µM] | -4%
34 | Cc1ccc(-c2csc3nc[nH]c(=S)c23)cc1C | 1.3 | 27% | 5 | -1 | -0.9% | 13%[15.4 µM] | -10%
35 | COCCC(=O)N1CCC(Oc2ccc(C(=O)NCCc3ccccn3)cc2)CC1 | 1.8 | -2% | 6 | 2 | · | -18%[15.4 µM] | 5%
36 | COc1cccc(C(=O)Nc2cc(C)on2)c1 | · | · | · | 2 | 1.4% | ? | ·
37 | CN(C)CCCNC(=S)N1CCn2c(nc3ccccc32)C1 | 9.7 | 4% | -3 | 3 | -1.6% | 3%[15.4 µM] | 10%
38 | OC1CCCN(Cc2ccc3c(c2)Cc2ccccc2-3)C1 (stereo not given) | 0.5 | 7% | 6 | -5 | -1.2% | 16% | 11%
39 | CCCCCCCCC(=O)NNC(=O)c1c(O)c2ccccc2n(CCC)c1=O | 0.9 | 17% | -4 | -6 | · | 6%[15.4 µM] | 11%
40 | O=C1C(=O)c2c(C(=O)c3ccccc3)coc2-c2ccccc21 | -2.4 | 56µM* | 14 | -10 | -2.3% | -11% | -3%
41 | CCOc1ccc(NC(=O)CC2C(=O)N(C)C(=S)N2Cc2ccc3c(c2)OCO3)cc1 (stereo not given) | 2.4 | -7% | 16 | -1 | 0.9% | -30% | -15%
42 | COc1ccc(C(CC(=O)NCc2ccccc2)C(C)C)cc1 (stereo not given) | -0.6 | 12% | -7 | 0 | · | -9%[15.4 µM] | -11%
43 | CCOC(=O)N1CCC(NC(=O)c2cc(COc3ccc(F)cc3Cl)on2)CC1 | 0.2 | 16% | -21 | 9 | 1.9% | 6% | 3%
44 | OC(CN1CCOCC1)CN(c1ccccc1)c1ccccc1 (stereo not given) | 2.8 | 0% | 8 | -7 | ? | -44% | 5%
45 | COc1ccccc1CNC(=O)[C@H](C)N1C(=O)N2CCc3c([nH]c4ccccc34)[C@@]2(C)C1=O | -13 | 15% | -4 | -29 | -1.8% | · | -16%
46 | COC(=O)CS(=O)(=O)c1nnc([C@H](Cc2ccccc2)NC(=O)OC(C)(C)C)o1 | 0.6 | -91% | -4 | 17 | -1.8% | 4% | -3%
47 | CCOC(=O)c1ccc(NC(=O)CSc2nccn2C)cc1 | 2.8 | 6% | 4 | -2 | 1.0% | -7% | -24%
48 | O=C(COC(=O)c1cc[n+]([O-])cc1)Nc1ccc(Cl)cc1[N+](=O)[O-] | 0.5 | 8% | 4 | 1 | -1.6% | 3% | 23%
49 | COc1cccc(-c2csc(N3CCN(C(=S)Nc4ccccc4Cl)CC3)n2)c1 | 4.5 | 20% | 14 | -4 | -3.7% | 0% | ?
50 | CCN(CC(=O)Nc1c(F)cccc1F)C(=O)c1ccc(Cl)c(S(=O)(=O)N2CCCCC2)c1 | · | 5% | 18 | -15 | 1.1% | -43%[inhibitor] | 2%
51 | NC(=O)COC(=O)c1sc2ccccc2c1Cl | -0.8 | -3% | -4 | 0 | 0.6% | 11%[15.4 µM] | 7%
52 | Cc1ccc(NC(=S)NNC(=S)Nc2cccc(C(F)(F)F)c2)cc1 | -1.1 | 28µM* | 14 | 3 | · | 0% | -29%

# High-throughput results from PubChem.
